# Mtb betalactam = beta-lactam sensitization of Mtb H37Rv. M. tuberculosis H37Rv growth with meropenem, percent inhibition; hits of this screen are not shown here. inhibition, % at 25 µM. actives 0.27% (n = 330,000). AID 434955;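 active means about 74% or more and at least 40 points above the plate without the antibiotic, then above 30% in a dose series; inconclusive means first-round hits that could not be retested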;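 further: growth measured after seven days incubation then overnight dye step; 0% = bacteria only wells and 100% = bacteria with antibiotic; twin plates without the antibiotic show which effects depend on it; some results filed as inactive read as strong as hits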
# Mtb H37Rv = M. tuberculosis H37Rv growth inhibitors, H37Rv strain (AID 1626). M. tuberculosis H37Rv growth inhibition; higher % means a stronger effect. inhibition, % at 10 µM; hits with a dose series show IC50 in µM. actives 0.95% (n = 220,000);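 active means confirmed in a dose series; inconclusive means inhibition above 80% but not taken into the dose series; inactive means below 80% or under 30% at every dose of the series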;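 further: bacteria incubated seven days before Alamar blue readout; 0% = bacteria only wells and 100% = bacteria with antibiotic wells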
# Arbovirus inh = arbovirus infection inhibition. arbovirus infection cell-based antiviral screen. actives 0.37% (n = 200,000). inhibition, % at 10 µM;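 active means inhibition from about 30%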;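 further: bluetongue infection of BSR cells; cell survival read as ATP light after 72 h; 0% = infected wells without compound and 100% = uninfected wells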
# YopH inh = inhibitors of Yersinia enterocolitica YopH tyrosine phosphatase | inhibition, %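 (about 10 µM by stock and volumes)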 | fluorescence Ex485/Em525 | actives 0.16% (n = 140,000);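 active means inhibition of 50% or more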;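 further: controls were vehicle for no effect and minimum signal wells for full effect; inactives centre near -20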
# RecA intein inh = Mtb RecA intein splicing inhibition; inhibition, %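 (about 9 µM by stock and volumes)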; actives 0.75% (n = 290,000); cell-free RecA intein splicing, fluorescence; in the data active means inhibition above about 30%; inconclusive means no clear call, values can overlap the other calls;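 further: 0% = vehicle wells and 100% = reference inhibitor control wells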
# Target sequence (P9WHJ3 whole entry, looked up): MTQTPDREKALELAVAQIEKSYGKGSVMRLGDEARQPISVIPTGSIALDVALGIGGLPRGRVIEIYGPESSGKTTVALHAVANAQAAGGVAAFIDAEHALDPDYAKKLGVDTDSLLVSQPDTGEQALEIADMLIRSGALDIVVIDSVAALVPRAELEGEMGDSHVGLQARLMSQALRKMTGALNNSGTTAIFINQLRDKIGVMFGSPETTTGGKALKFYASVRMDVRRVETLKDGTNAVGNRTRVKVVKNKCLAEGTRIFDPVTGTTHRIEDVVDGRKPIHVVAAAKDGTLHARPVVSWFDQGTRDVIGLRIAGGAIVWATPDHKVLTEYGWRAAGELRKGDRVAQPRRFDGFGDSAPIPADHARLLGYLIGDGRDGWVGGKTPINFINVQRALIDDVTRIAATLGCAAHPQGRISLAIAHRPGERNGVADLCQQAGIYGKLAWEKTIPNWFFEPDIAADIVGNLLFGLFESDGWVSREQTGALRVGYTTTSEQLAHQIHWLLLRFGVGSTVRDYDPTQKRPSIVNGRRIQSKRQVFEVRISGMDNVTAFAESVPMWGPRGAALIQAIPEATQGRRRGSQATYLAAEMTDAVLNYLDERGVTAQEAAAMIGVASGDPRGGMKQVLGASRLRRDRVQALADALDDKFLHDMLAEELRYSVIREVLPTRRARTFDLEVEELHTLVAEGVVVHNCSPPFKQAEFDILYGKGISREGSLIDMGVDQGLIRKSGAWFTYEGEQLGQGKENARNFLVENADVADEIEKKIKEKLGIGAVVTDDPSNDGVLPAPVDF
# Arbovirus inh repeat = recorded beside Arbovirus inh, whose call it bears; inhibition, %; measured here: 10K subset replicate screen; many hits read low in the repeat;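 first of two repeat runs on a subset; 0% = infected and 100% = uninfected wells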
# * marks the source's active call; other numbers are inactive results; ? = inconclusive; . = not tested or not shown. This is a subset; count on the stated rates, not on these rows.
SMILES,Mtb betalactam,Mtb H37Rv,Arbovirus inh,YopH inh,RecA intein inh,others
COc1ccc(NC(=O)c2sc3nc(-c4cccnc4)ccc3c2N)cc1,-7,0%,.,.,-9.2,
Cc1cccc(NC(=O)COC(=O)c2ccccc2SCC(=O)N2CCCC2)c1,-17,.,.,.,-1.9,
COc1ccc(OC)c(-c2nc(CN3CCCCC3c3cccnc3)c(C)o2)c1 (configuration not stated),-9,0%,3,.,-1.1,
O=C(CC1C(=O)NCCN1Cc1ccccc1C(F)(F)F)NC1CCCC1 (configuration not stated),-2,.,.,.,2.4,
Cn1c(=O)[nH]c(=O)c2c1nc(NCc1ccccc1)n2CCCc1ccccc1,1,1%,6,-38,-4.8,
CC(=O)n1nc(-c2cccnc2)nc1NCc1cccs1,-3,6%,12,.,0.1,
Cc1ccc(NS(=O)(=O)c2cc(C(=O)Nc3cccc(N(C)S(C)(=O)=O)c3)ccc2C)c(C)c1,7,9%,-10,-8,1.2,
N#CC1=C(N)Oc2n[nH]c(-c3cccs3)c2C1c1ccsc1 (configuration not stated),-6,-8%,-5,1,91*,
O=c1cc(Cc2ccccc2)[nH]c(=S)[nH]1,1,-9%,-1,-22,-0.5,
O=C(c1cc(Cl)nc2ccccc12)N1CCN(S(=O)(=O)c2cccc(C(F)(F)F)c2)CC1,0,.,.,.,3.5,
CCC(=O)NC1(C(F)(F)F)C(=O)Nc2c1c(=O)[nH]c(=O)n2Cc1ccco1 (configuration not stated),-5,3%,-4,-3,-1.9,
CCCn1c(SCC(=O)N2CCN(c3ccccc3)CC2)nc2ccccc2c1=O,1,-12%,7,2,9.5,
OCCCCNCc1cc(Br)ccc1OCc1ccccc1,5,7%,-10,.,3.3,
COc1ccccc1NC(=O)COC(=O)c1ccccc1SCC(=O)N1CCCC1,-6,.,.,.,1.5,
COc1ccc(Cc2nc3ccc(S(N)(=O)=O)cc3[nH]2)cc1OC,-7,-3%,13,-133,-0.7,
Cc1c(C)c2ccc(OCc3ccc(C(=O)O)o3)c(C)c2oc1=O,1,0%,13,-11,.,
CCN1C(=O)N/C(=C/c2cc(C)n(Cc3ccccc3)c2C)C1=O,28,?,-6,-22,-1.6,
COc1ccc(C(=O)NC2=NCCS2)cc1,5,.,.,.,-1.8,
Cc1cc(C)c(S(=O)(=O)N2CCC(C(N)=O)CC2)cc1C,-2,-2%,6,1,0.1,
COc1cccc(-c2csc(N3CCN(C(=O)Nc4ccc(Cl)cc4)CC3)n2)c1,98,80%,-14,.,10,

# Compounds from the list above that contain a Cl atom (2):
SMILES,Mtb betalactam,Mtb H37Rv,Arbovirus inh,YopH inh,RecA intein inh,others
O=C(c1cc(Cl)nc2ccccc12)N1CCN(S(=O)(=O)c2cccc(C(F)(F)F)c2)CC1,0,.,.,.,3.5,
COc1cccc(-c2csc(N3CCN(C(=O)Nc4ccc(Cl)cc4)CC3)n2)c1,98,80%,-14,.,10,

# The list goes on.
SMILES,Mtb betalactam,Mtb H37Rv,Arbovirus inh,YopH inh,RecA intein inh,others
Cc1cccc(NS(=O)(=O)c2ccc3oc(=O)ccc3c2)c1C,1,.,.,.,5.1,
Cn1c(SCC(=O)NCC2CCCO2)ncc(C(=O)Nc2ccc(Cl)cc2)c1=O (configuration not stated),74,.,.,.,54*,
CN(C)CCCN(C(=O)c1cc2cc([N+](=O)[O-])ccc2s1)c1nc2cc3c(cc2s1)OCCO3,-2,.,.,.,5.1,
O=C1c2ccc(Oc3cccc([N+](=O)[O-])c3)cc2C(=O)N1c1ccccn1,-1,-2%,11,.,-1.9,
CCOC(=O)C1(CC2CCCCO2)CCN(C(=O)Nc2ccc(C(=O)OC)cc2)CC1 (configuration not stated),-6,-11%,9,.,-1.1,
Nn1c(Cc2cccc3ccccc23)nnc1SCc1c(Cl)cccc1Cl,2,4%,-16,-30,6.9,
CCOC(=O)N1CCN(Cc2ccccc2F)CC1,-5,5%,5,8,3.6,
Cc1ccccc1-n1nc(C)c2c(C(=O)NN)cc(-c3ccncc3)nc21,6,-3%,2,.,4.5,
COc1ccc(-n2nc(C(=O)NCC(=O)N3CCC4(CC3)OCCO4)c3ccccc3c2=O)c(OC)c1,-2,.,.,.,-1.3,
CCn1c(COc2ccc3c(c2)OCO3)nnc1SCC(=O)O,6,-13%,5,-14,0.5,
CCOc1ccc2nc(NC(=O)CSc3nnnn3C3CCCCC3)sc2c1,18,56µM*,20,6,11,
CN(C)C(=O)c1cc(C(=O)c2ccc(F)cc2C(F)(F)F)c[nH]1,-3,.,.,.,-1.1,
CCOC(=O)c1cc(C#N)c(C)nc1N(CC)CC,-4,-10%,.,.,0.5,
COc1cc(C(=O)OCCN2CCCCC2)ccc1O,0,-10%,11,-38,-6.4,
COc1ccc(C(C(=O)NC(C)(C)C)N(C(=O)Cn2nnc3ccccc32)c2cccc(C(C)=O)c2)cc1O (configuration not stated),-7,.,.,.,-0.6,
CCn1cc(CN2CCC(n3nccc3NC(=O)Cc3ccccc3)CC2)c(C)n1,0,.,.,.,-1.9,
O=C(Nc1ccc(Br)cc1)C1CCN(C(=O)c2ccco2)CC1,-3,.,.,.,0.4,
CC(C)(C)NC(=O)Cn1c(SCC(=O)NCc2cccs2)nc2ccccc21,-13,-9%,7,-26,0.6,
COc1cc(S(=O)(=O)N2CCCCC2)ccc1NC(=O)c1ccncc1,-7,.,.,.,-1.0,
CCS(=O)(=O)Nc1cccc(C2=NN(C(C)=O)C(c3cccs3)C2)c1 (configuration not stated),-1,4%,-3,.,1.1,
COc1cc(NC(=O)CN2c3cccc4cccc(c34)S2(=O)=O)cc(OC)c1OC,-20,4%,2,14,-2.6,
O=C(/C=C1\NC2(CCCC2)Cc2ccccc21)C(=O)N/N=C/c1ccc(O)c(O)c1,1,0%,-20,-8,3.1,
COc1ccccc1NC(=O)CNC(=O)Cn1cnc2sc(C)c(C)c2c1=O,0,.,.,.,-0.4,
Cc1cc(Cl)cc(C)c1OCCNCc1ccccc1,1,.,.,.,-0.7,
Cc1ccc2[nH]c3c(c2c1)CCC3=O,-2,0%,0,-22,-1.1,
COc1ccc(OC)c(NC(=O)CSc2nc3ccccc3c(=O)n2CC2CCCO2)c1 (configuration not stated),2,.,.,.,6.5,
COc1cc2c(cc1NC(=O)Cc1ccc(C)cc1)oc1ccccc12,-1,2%,-12,-13,2.4,
O=C(Nc1ccc(NC(=O)c2ccc(Cl)cc2Cl)cc1)c1cccs1,-3,.,.,.,0.4,
O=C(NCc1ccc2c(c1)OCO2)C1CC(c2ccc(Cl)cc2)=NO1 (configuration not stated),-3,25%,-10,-30,3.3,
COc1cc2c(cc1NC(=O)CCC(=O)O)oc1ccccc12,2,.,.,.,1.5,
Cc1ccc(C(=O)N(CC(=O)NC2CCCCC2)c2ccccc2F)s1,-1,2%,-2,.,-1.1,
COc1ccc(C2(C)NC(=O)N(CC(=O)Nc3ccc4c(c3)OCO4)C2=O)cc1OC (configuration not stated),-17,5%,3,-19,4.1,
O=C(c1ccc(S(=O)(=O)N2CCCCCC2)cc1)N(c1ccccn1)C1CCCCC1,0,-1%,-2,.,1.0,
COc1ccc(OC)c(C2C(C#N)=C(N)Oc3cc(C)[nH]c(=O)c32)c1 (configuration not stated),-3,.,-4,-19,-3.2,
CCCCN(CCCC)CCNC(=O)CN1C(=O)COc2ccc(S(=O)(=O)N3CCC(C)CC3)cc21,3,.,.,.,-0.6,
COc1ccc2c(-c3cccnc3)cc(=O)[nH]c2c1,0,0%,-4,-2,-1.0,
O=C(CNC(=S)NC(=O)c1ccco1)c1ccccc1,-1,-8%,-6,15,1.7,
CCC(C)(C)n1nnnc1C(c1cccnc1)N1CCN(c2cccc(C(F)(F)F)c2)CC1 (configuration not stated),-11,-7%,5,-7,8.9,
Cc1nnc(SCCn2c(Br)nc3c2c(=O)[nH]c(=O)n3C)s1,-1,.,5,-28,-4.4,
CC(=O)N1CCN(c2nc3ccc([N+](=O)[O-])cc3s2)CC1,-2,.,.,.,-1.0,
CCOc1ccc2nc(N=Nc3c(O)[nH]c(=O)[nH]c3=O)sc2c1,-1,.,.,.,4.8,
O=C(CC1C(=O)NCCN1C/C=C/c1ccccc1)NCCc1ccncc1 (configuration not stated),-8,-7%,4,.,3.2,
O=C(O)CC1c2ccccc2CCN1S(=O)(=O)c1cccs1 (configuration not stated),-7,.,.,.,-0.6,
NC1=NC(=O)/C(=C/c2cccc(-c3ccc(S(N)(=O)=O)cc3)c2)S1,-1,.,.,.,-3.9,
Cc1cccc(NC(=O)NNC(=O)c2cc(-c3ccccc3Cl)nc3ccccc23)c1,78,12%,-18,22,5.1,
C=C1C(C(=O)Nc2ccc(OCC)cc2)C1C(=O)Nc1ccc(OCC)cc1 (configuration not stated),-1,6%,-7,.,-2.4,
CC12COC3(C(=O)Nc4ccc([N+](=O)[O-])cc4)CC1CCC32C (configuration not stated),4,4%,6,-23,-0.1,
CC(=O)CCn1c(=O)n(CCC(C)=O)c(=O)n(CCC(C)=O)c1=O,2,-7%,-4,-25,.,
C=CCN1CC[C@]23c4c5ccc(O)c4OC2C(=O)CC[C@@]3(O)C1C5 (some centres not stated),0,-1%,.,.,-2.2,
CCNC(=O)CCn1nc(-c2ccc(Cl)cc2)c2ccccc2c1=O,.,5%,4,-43,4.1,Arbovirus inh repeat=2
# Next records.
SMILES,Mtb betalactam,Mtb H37Rv,Arbovirus inh,YopH inh,RecA intein inh,others
O=C(CSc1ncnc2c1sc1ccccc12)Nc1ccc(Br)cc1,4,-1%,4,-16,-1.1,
S=C(NCc1cccs1)Nc1cccc(Cl)c1Cl,9,-4%,14,-34,5.6,
C/C=C/c1ccc(OCCCCOc2ccc(OC)cc2)c(OC)c1,12,25%,1,-34,-1.2,
Cc1ncoc1C(=O)NC1CC(C)(C)Cc2c1cnn2-c1ccccc1 (configuration not stated),-5,.,.,.,3.1,
CC(=O)Cc1nsc(NC(=O)c2ccc(-c3ccc(Cl)c(Cl)c3)o2)n1,-7,11%,11,.,4.8,
O=C(CSc1ccc(-c2cccs2)nn1)N1CCCCC1,-5,-2%,-10,-28,-3.1,

# Compounds from the list above that have an aryl thioether with sulfur outside any ring:
SMILES,Mtb betalactam,Mtb H37Rv,Arbovirus inh,YopH inh,RecA intein inh,others
Cc1cccc(NC(=O)COC(=O)c2ccccc2SCC(=O)N2CCCC2)c1,-17,.,.,.,-1.9,
CCCn1c(SCC(=O)N2CCN(c3ccccc3)CC2)nc2ccccc2c1=O,1,-12%,7,2,9.5,
COc1ccccc1NC(=O)COC(=O)c1ccccc1SCC(=O)N1CCCC1,-6,.,.,.,1.5,
Cn1c(SCC(=O)NCC2CCCO2)ncc(C(=O)Nc2ccc(Cl)cc2)c1=O (configuration not stated),74,.,.,.,54*,
Nn1c(Cc2cccc3ccccc23)nnc1SCc1c(Cl)cccc1Cl,2,4%,-16,-30,6.9,
CCn1c(COc2ccc3c(c2)OCO3)nnc1SCC(=O)O,6,-13%,5,-14,0.5,
CCOc1ccc2nc(NC(=O)CSc3nnnn3C3CCCCC3)sc2c1,18,56µM*,20,6,11,
CC(C)(C)NC(=O)Cn1c(SCC(=O)NCc2cccs2)nc2ccccc21,-13,-9%,7,-26,0.6,
COc1ccc(OC)c(NC(=O)CSc2nc3ccccc3c(=O)n2CC2CCCO2)c1 (configuration not stated),2,.,.,.,6.5,
Cc1nnc(SCCn2c(Br)nc3c2c(=O)[nH]c(=O)n3C)s1,-1,.,5,-28,-4.4,
O=C(CSc1ncnc2c1sc1ccccc12)Nc1ccc(Br)cc1,4,-1%,4,-16,-1.1,
O=C(CSc1ccc(-c2cccs2)nn1)N1CCCCC1,-5,-2%,-10,-28,-3.1,
